Rango complex inh: qHTS Assay for Inhibitors of Rango (Ran-regulated importin-beta cargo) - Importin beta complex formation. Potency, µM (doses to about 92.2 µM), for inactives: at the highest dose inhibition of complex formation. 340,000 tested, 0.031% active. Importin subunit beta-1 (Homo sapiens), Q14974. AID 540263, 2011. Rango CFP/YFP FRET sensor + importin beta, 45 min; active = rising FRET ratio curve, often small or poorly fitted; inconclusive = mostly compound fluorescence or quenching in the first reads; inactive = flat curves in all reads;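 also: potency is read from the fitted curve at half-maximal effect; 0% = DMSO wells and 100% = buffer wells lacking importin beta; nearly all actives have a fitted effect of over 15% in size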
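FRET biosensor Rango (snurportin 1 IBB between N-terminal EYFP and C-terminal Cerulean), 50 nM in PBS/1 mM DTT/0.02% Tween-20/0.1% BSA, preincubated 5 min RT with compound; 0.125 microM importin beta added, 45 min RT, CFP/YFP FRET ratio read.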
GLA inh pH 4.5: qHTS Assay for Inhibitors of Human alpha-Galactosidase at pH 4.5; Alpha-galactosidase A (Homo sapiens), P06280; purified enzyme, 4-MU-alpha-Gal fluorescence, pH 4.5; activity change, negative = inhibition, % at 105 µM; 230,000 tested, under 10 active; AID 1467, 2008; inconclusive = small, poorly fitted or top-dose-only inhibition, or a rising curve; inactive = flat fitted curve, though single readings scatter; no compound was filed as active;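 also: 0% = full activity with enzyme and -100% = basal without enzyme; dose as in the result columns while the protocol names 77 µM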
Target sequence (P06280 whole entry, looked up): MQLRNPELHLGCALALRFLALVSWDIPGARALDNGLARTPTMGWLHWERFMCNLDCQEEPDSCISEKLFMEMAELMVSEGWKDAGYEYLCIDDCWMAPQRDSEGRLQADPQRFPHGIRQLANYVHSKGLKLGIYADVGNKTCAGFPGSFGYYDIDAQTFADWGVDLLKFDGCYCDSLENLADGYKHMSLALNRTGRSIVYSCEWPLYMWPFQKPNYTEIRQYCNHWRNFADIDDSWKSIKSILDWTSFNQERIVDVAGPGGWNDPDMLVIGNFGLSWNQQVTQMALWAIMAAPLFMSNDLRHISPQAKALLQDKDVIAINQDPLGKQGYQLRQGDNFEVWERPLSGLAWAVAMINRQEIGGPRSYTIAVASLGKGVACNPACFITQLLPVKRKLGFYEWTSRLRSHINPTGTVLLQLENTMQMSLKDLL
Rango release inh: qHTS Assay for Inhibitors of RanGTP induced Rango (Ran-regulated importin-beta cargo) - Importin beta complex dissociation | Biochemical FRET Rango-importin beta, RanGTP-induced dissociation | 340,000 tested, 0.071% active | Potency, µM (doses to about 46.1 µM), for inactives: at the top dose activity change, negative = inhibition | Snurportin-1 (Homo sapiens) + GTP-binding nuclear protein Ran (Homo sapiens) + Importin …; active means falling FRET ratio curve, often poorly fitted, with flat reads before Ran was added; inconclusive means other falling curves, or compound fluorescence or quenching; inactive means flat or rising ratio curve;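 also: potency is read from the fitted curve at half-maximal effect; % of control where 0% means no effect; nearly all actives have a fitted effect of over 45% in size; -100% = wells without RanGTP and RCC1; the record marks most hits as doubtful in a second field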
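Rango FRET biosensor (snurportin-1 IBB flanked by N-terminal EYFP and C-terminal CFP10) at 0.1 uM, with 0.25 uM importin beta in PBS, 1mM DTT, 0.02% Tween-20, 0.1% BSA. 0.6 uM Ran, 2mM GTP and 0.2 uM RCC1 were then added for 45 min at room temperature. Inhibition read as loss of FRET rise.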
miR-21 FLuc: qHTS Assay for Modulators of miRNAs and/orActivators of miR-21; HeLa miR-21 FLuc reporter, luciferase, 48 h; 340,000 tested, under 10 active; Potency, µM (highest dose often 38.3 µM), for the others: at the highest dose reporter change, positive = more light; active = well fitted rising curve with a large enough effect; inconclusive = small, poorly fitted or top-dose-only effect; inactive = no such curve, though single readings can be large or run the other way;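 also: % of control where 0% means no effect; miR-21 action dims this reporter so a rising signal means less miR-21 action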
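Compounds were titrated across several concentrations (up to approximately 40 uM) and incubated 48 hours with HeLa miR-21-FLuc reporter cells (miR-21 target sequence downstream of FLuc, endogenous miR-21). Readout was firefly luciferase luminescence after lytic detection reagent.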
* = called active by the depositor; ? = inconclusive; / = no result given; & = joins results of further samples.

Rango complex inh	GLA inh pH 4.5	Rango release inh	miR-21 FLuc	molecule
0.5%	2	5%	2%	CCOC(=O)c1ccc(S(=O)(=O)NCCN2CCOCC2)cc1
0.3%	-7	4%	11%	O=C(NCc1nc2ccccc2[nH]1)C1=C[C@@H](c2ccccc2)C[C@@H](OCc2ccc(CO)cc2)O1
0.2%	6	-6%	-31%	CC(C)c1ccc(/C=C/C(=O)Nc2nncs2)cc1
4.5%	9	-3%	-6%	O=[N+]([O-])c1ccc(N2CCN(S(=O)(=O)c3ccccc3[N+](=O)[O-])CC2)cc1N1CCc2ccccc2C1
3.9%	-1	0%	0%	Cc1ccc(-n2c(O)c(C=NC3CCS(=O)(=O)C3)c3ccccc3c2=O)cc1C (configuration not stated)
0.2%	0	-2%	-47%	CC(C)OCCCNC(=O)c1ccc(Br)cc1
?	0	-7%	-4%	Cc1ccc(-c2nnc(SCC(=O)NNC(=O)COc3ccccc3C)n2C)cc1
4.0%	/	7%	3%	Cc1ccc(NC(=O)c2cccc(C(=O)Nc3ccc(C)cc3C(=O)O)c2)c(C(=O)O)c1
3.9%	-5	-5%	-4%	Cc1cccc(N2CCN(C(=O)c3ccc(Cl)c(S(=O)(=O)N4CCc5ccccc5C4)c3)CC2)c1C
-1.7%	-2	6%	1%	COc1ccc(NC(=O)N2CCC(CO)(CC3CCCCO3)CC2)c(OC)c1 (configuration not stated)
?	1	-9%	-3%	CC(c1ccccc1)C1CC(=O)N(Cc2ccco2)C1=O (configuration not stated)
-0.3%	5	-5%	9%	C=C(C)COc1ccc(-c2n[nH]c(C)c2Oc2ccccc2OC)c(O)c1
-0.6%	/	-16%	-1%	CCc1cc(=O)oc2cc(C)cc(OCC(=O)N3CCC(C(=O)O)CC3)c12
0.7%	/	2%	/	O=C1C=C(c2cccc3c2sc2ccccc23)C[C@@H](c2ccc(Cl)cc2)C1
-0.3%	-7	2%	-50%	CCCC1=NN(c2ccc([N+](=O)[O-])cc2)C(=O)/C1=C/N(C)C
4.4%	5	-8%	1%	COc1ccc(N2CCN(C(=O)CSc3nnc4c(C)cc5ccc(C)c(C)c5n34)CC2)cc1
3.8%	4	-2%	-1%	CNC(=O)CSCCn1c(SCC(=O)NC)nc2ccccc2c1=O
-1.3%	/	-7%	-8%	CCN1CCN(c2c(Cl)cccc2NC(=O)c2cccs2)CC1
-1.2%	-2	1%	-31%	Cn1cc(Br)c(C(=O)Nc2ncc(Br)s2)n1
-1.7%	/	11%	/	O=C(c1cnccn1)N1CCN(S(=O)(=O)c2cccc(Cl)c2)CC1
-0.8%	/	6%	-5%	CCOc1ccc(CCNS(=O)(=O)c2cn(C)cn2)cc1OCC
-0.8%	0	0%	0%	CC(=O)Nc1ccc(S(=O)(=O)N2CCC(=O)Nc3ccccc32)cc1
5.2%	5	-6%	-3%	CS(=O)(=O)N(CC(=O)Nc1ccccc1C(=O)N1CCCC1)c1cccc([N+](=O)[O-])c1
-1.3%	/	-2%	/	COc1ccc(C(NC(=O)CN2C(=O)NC3(CCc4ccccc43)C2=O)c2ccccc2)cc1 (configuration not stated)
-0.8%	-5	1%	-10%	Cc1cc2ncn(CCC(=O)NC3CCCC3)c2cc1C
0.0%	/	1%	/	CC(=O)CC[N+](C)(C)C
0.0%	/	0%	-6%	Cc1cccn2c(=O)c(/C=C(\C#N)C(N)=O)c(N3CCN(c4ccccc4)CC3)nc12
-6.6%	/	3%	0%	CSc1ccc(CN(C)Cc2cc(=O)oc3c(C)c(C)ccc23)cc1
4.6%	4	0%	-32%	S=C(NCc1ccccn1)Nc1cccc(Cl)c1
0.2%	3	-4%	-2%	O=C1Cc2cccc3cccc1c23
-0.9%	5	22%	0%	Cc1nn(C)c(C(=O)Sc2cccc(Cl)c2)c1[N+](=O)[O-]
-2.9%	-4	6%	-3%	Cc1cc(-n2c(C)cc(C(=O)CSc3ccc4c(c3)OCCO4)c2C)no1
-3.3%	5	0%	0%	CCN(CC)S(=O)(=O)c1ccc(N2CCOCC2)c(NCC(=O)Nc2ccc(F)cc2)c1
-1.4%	/	17%	/	COc1ccccc1-n1nnnc1SCC(=O)N(C)C1CCS(=O)(=O)C1 (configuration not stated)
0.0%	2	-2%	7%	C/C(Cl)=C\Cn1c(NCCc2ccccc2)nc2c1c(=O)n(C)c(=O)n2C
3.7%	5	43%	-7%	CC(C)(C)c1ccc(OCC(=O)Nc2ccc(-c3nc4cccnc4o3)cc2)cc1
6.0%	/	8%	-28%	O=C(NC(=S)N1CCc2ccccc21)c1ccccc1Cl
-2.0%	-3	-6%	-62%	c1ccc2sc(Nc3nc4cc5c(cc4s3)OCO5)nc2c1
0.2%	2	-13%	-9%	O=C(NC(=S)Nc1ccc(CN2CCOCC2)cc1)c1cc2ccccc2o1
-4.8%	1	2%	-5%	CC1(C)CC(=O)c2cc(C(=O)NC3CCSC3=O)c(=O)n(-c3ccccc3)c2C1 (configuration not stated)

Part of the list above, with values under each structure.
Every second line gives: Rango complex inh, GLA inh pH 4.5, Rango release inh, miR-21 FLuc
- O=C(NC(=S)N1CCc2ccccc21)c1ccccc1Cl
    6.0%, /, 8%, -28%
- Cc1cccn2c(=O)c(/C=C(\C#N)C(N)=O)c(N3CCN(c4ccccc4)CC3)nc12
    0.0%, /, 0%, -6%
- CC1(C)CC(=O)c2cc(C(=O)NC3CCSC3=O)c(=O)n(-c3ccccc3)c2C1 (configuration not stated)
    -4.8%, 1, 2%, -5%

(list continues)
Rango complex inh	GLA inh pH 4.5	Rango release inh	miR-21 FLuc	molecule
?	0	5%	-3%	Cc1ccc(S(=O)(=O)N2CCOCC2)cc1NC(=O)COC(=O)Cc1ccsc1
-0.8%	/	11%	1%	COc1ccc(S(=O)(=O)N2CC(C)N(C(=O)N(C)C)C2C(C)C)cc1 (configuration not stated)
0.9%	1	-12%	13%	CCCNC(=S)N1CCN(c2nc(C)nc3sc4c(c23)CCCC4)CC1
-1.2%	9	-3%	0%	Cc1ccc(CN2CCN(Cc3ccc4c(c3)OCCO4)CC2CCO)cc1 (configuration not stated)
1.7%	-6	-12%	-1%	COc1ccc(-n2c(N)c(C(=O)NCC3CCCO3)sc2=S)cc1 (configuration not stated)
-1.9%	/	-5%	-22%	C=CCn1cccc(C(=O)Nc2ccc(C)c(Cl)c2)c1=O
-2.1%	-13	-1%	-9%	COc1ccc(C2C(C(=O)O)c3ccccc3C(=O)N2C)cc1Br (configuration not stated)
-0.1%	/	1%	/	COc1ccc(Cl)cc1NC(=S)NC(=O)c1ccc2c(c1)OCO2
-4.3%	/	7%	-1%	COc1ccc(-c2cc3c(=O)n(CC(=O)NCc4cccnc4)nc(C)n3n2)cc1
-2.7%	/	-12%	-3%	N#CC1(NC(=O)COC(=O)/C=C/c2ccc3ccccc3n2)CCCCC1
2.2%	/	9%	1%	CCCCOc1ccc(OCCSc2nc3ccccc3n2CC(=O)O)cc1
-0.5%	-6	0%	-1%	CC1(C)CC(=O)C(N=Nc2cc(C(F)(F)F)ccc2Cl)=C(O)C1
?	-1	-1%	-16%	Cc1cc(C)n(-c2ccc(C(=O)NCc3cccs3)cc2)n1
-1.5%	/	-5%	-26%	COc1nc(Nc2cccc(F)c2)nc(OC)n1
3.3%	/	20%	/	CCC1(c2ccccc2)NC(=O)N(CC(=O)Nc2cc(Cl)ccc2N2CCN(C)CC2)C1=O (configuration not stated)
0.8%	-8	-7%	3%	O=C(NCCCN1CCOCC1)C(=O)N/N=C/c1cccc2ccccc12
2.2%	5	2%	-14%	O=C(CSc1ncccn1)N/N=C/c1cccs1
-1.4%	/	?	?	COc1ccc(NC(=O)c2ccc3c(c2)CCN3S(=O)(=O)c2ccccc2)cc1
-5.3%	0	-2%	23%	Cc1ccc(NC(=S)Nc2cccnc2)c(S(=O)(=O)N2CCCCC2)c1
0.5%	/	-1%	/	CCOc1ccc(NC(=O)CN(C)C(=O)c2cc([N+](=O)[O-])ccc2N2CCOCC2)cc1OCC
?	-3	?	-9%	CCOc1ccc(C2c3c(oc4cc(C)c(C)cc4c3=O)C(=O)N2CCCN(C)C)cc1OC (configuration not stated)
5.2%	-8	-12%	-1%	O=C(Nc1cc(C(F)(F)F)ccc1N1CCOCC1)c1ccccc1
?	-1	?	24%	CN1C(=O)C(O)(CC(=O)/C=C/c2ccco2)c2cc(Br)ccc21 (configuration not stated)
?	-3	?	26%	CCOC(=O)C1=C(O)c2ccccc2C(=O)/C1=C\c1ccc(C)cc1
5.4%	/	-1%	-22%	COc1cccc(NC(=O)[C@H](Cc2ccccc2)NC(=O)[C@@H]2Cc3ccccc3CN2)c1
-0.2%	-4	-10%	0%	CN(C)CCCNc1ccc(-c2nn(C)c(=O)c3ccccc23)cc1[N+](=O)[O-]
-0.2%	4	7%	-6%	CCOc1ccccc1/C=N/NC(=O)c1ccc(Cn2cc([N+](=O)[O-])cn2)o1
0.9%	/	-10%	/	O=C1N[C@@H](Cc2cn(S(=O)(=O)c3ccccc3)c3ccccc23)C(=O)N[C@H]1Cc1ccccc1
0.4%	-19	10%	-5%	CC(/C=C/C1(O)C(C)CC(=O)CC1(C)C)OC1OC(CO)C(O)C(O)C1O (configuration not stated)
-3.8%	/	4%	2%	O=C(Nc1cccnc1)c1ccc(Cl)c(S(=O)(=O)N2CCOCC2)c1
-1.6%	-10	-6%	-10%	COc1cccc(CC2(CO)CCCN(Cc3cnn(-c4ccccc4)c3)C2)c1 (configuration not stated)
0.0%	-2	2%	-4%	O=C(c1ccc(S(=O)(=O)c2ccccc2)cc1)N1CCCCCC1
1.9%	/	35%	14%	c1ccc(NNC2=NCCCCC2)cc1
1.4%	6	-20%	-12%	Cc1ccc(S(=O)(=O)c2nc(-c3ccccc3)oc2NCCN2CCOCC2)cc1
-0.5%	-18	3%	1%	CCNS(=O)(=O)c1cc(OC)ccc1OC
-0.7%	3	1%	3%	CNC(=S)NNC(=O)c1cccc(N(C)C)c1
?	13	7%	-4%	COCCN(C(=O)CN1CCCc2ccccc21)c1c(N)n(Cc2ccccc2)c(=O)[nH]c1=O
2.2%	/	-15%	/	CCN(C(=O)COC(=O)C(C)(C)Oc1ccc(Cl)cc1)c1c(N)n(Cc2ccccc2)c(=O)[nH]c1=O
1.3%	/	1%	-34%	Cc1ccc(NC(=O)c2ccc3c(c2)CCN3S(C)(=O)=O)cc1C
3.1%	/	0%	/	COc1cc2ccccc2cc1C(=O)N1CCCCC1
-2.6%	1	-6%	-17%	COCCNCCCCOc1ccccc1-c1ccccc1
-0.7%	2	-10%	-3%	CC1=CC(C)(C)N(C(=O)CSc2nnc(N)s2)c2cc(C)c(C)cc21
-0.2%	/	-4%	-9%	CN(Cc1cccc(F)c1)C(=O)C(c1ccccc1)c1ccccc1
0.3%	-9	-13%	0%	COc1ccccc1N=CC1=C(O)CC(c2ccccc2)CC1=O (configuration not stated)
-0.9%	/	-1%	3%	O=C(O)/C=C/c1cccc(NC(=O)Nc2ccc([N+](=O)[O-])cc2)c1
-0.7%	3	1%	-2%	COc1cc(C=Nc2c(C)cc(C)cc2C)ccc1OC(C)=O
0.5%	0	9%	-3%	O=S(=O)(c1ccc2nc(Cc3ccccc3)[nH]c2c1)N1CCOCC1
0.5%	-16	6%	-53%	Cc1cc(C)n(-c2ncc(-c3ccccc3)nn2)n1
-2.2%	-3	?	-30%	CC(=O)c1sc(Nc2ccccn2)nc1C
-4.5%	4&3	-10%	-16%	O=C1CC(c2ccc(O)c(O)c2)Oc2cc(O)cc(O)c21 (configuration not stated)
-0.1%	3	-10%	-78%	COc1ccc(CNC(=O)CSCc2ccccc2Cl)cc1
0.1%	-2	-2%	-31%	NS(=O)(=O)c1cccc(NC(=O)Nc2ccc(Cl)cc2)c1

High-throughput results from PubChem BioAssay.

The list is partial; the hit share may differ from the screen's.
